# Source: PubChem BioAssay
# Ecoli rRNA inh: selective bacterial rRNA inhibition in E. coli | GFP signal change (wild-type ribosome), % (concentration not given with the values) | AID 720706 | E. coli WT GFP vs humanized-ribosome RFP mutants, fluorescence, 24 h; active compounds read low; DMSO median 0, no signal -100 | actives 1.6% (n = 350,000);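 active = significant combined selectivity score with lowered wild-type GFP, culture density cut under 30%, mutant RFP and density less affected; inactive = any of these conditions unmet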; also: one replicate is shown; some compounds called inactive have numbers as strong as hits
# Vif A3G: inhibitors of Vif binding to APOBEC3G peptide, primary screen, biochemical, TR-FRET, GST-Vif 1-94, biotin-A3G peptide, dose response retest (AID 1117319); TR-FRET GST-Vif / biotin-A3G peptide binding; higher % means a stronger effect; test concentration not given here; strong numbers were not always called active; inhibition, %; hits with a dose series show IC50 in µM; actives 0.57% (n = 260,000);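 active = above the screen mean plus three standard deviations and confirmed in dose response; inconclusive = results disagree or hit not tested in dose response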;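 also: Vif residues 1-94 fused to GST binding biotinylated APOBEC3G peptide 110-148; 0% = full assay without inhibitor and 100% = GST in place of GST-Vif; retest series ran down from 100 µM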
# MLL AF4-AF9 inh: inhibitors of human MLL-AF4/AF9 interaction; AID 651704; inhibition, % at 10 µM; actives 0.47% (n = 350,000); P42568; AlphaScreen, biotin-AF4 peptide binding to FLAG-AF9;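 active = every replicate reaching a set inhibition limit, whatever the replicate mean, cut at about 25% in these data; inconclusive = mean inhibition reaches that limit but some replicates miss it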;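 also: 0% = plate neutral control median and 100% = total signal loss; the record names both 10 and 1 µM as test concentration; the first replicate is given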
# FGF22 binding: FGF22 (human) thermal shift binding; Q9HCT0; recombinant FGF22 thermal shift, SYPRO orange fluorescence; percent of sucrose octasulfate shift, DMSO zero; calls only at 9.99 µM; actives 1.5% (n = 340,000);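 active = melting point raised past a set limit in the mean and every replicate; inconclusive = no clear call; three in four hits are not shown here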
# Target sequence (Q9HCT0 whole entry, looked up): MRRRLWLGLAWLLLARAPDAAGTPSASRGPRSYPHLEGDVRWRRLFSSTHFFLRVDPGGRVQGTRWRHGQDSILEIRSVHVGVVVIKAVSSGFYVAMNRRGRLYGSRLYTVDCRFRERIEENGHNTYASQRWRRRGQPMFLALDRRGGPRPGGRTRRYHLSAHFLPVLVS
# E coli growth: E. coli growth inhibition. Escherichia coli growth, OD600, 23 h; active compounds read low. OD600 absorbance (concentration not given with the values). actives 0.21% (n = 330,000). AID 1053175;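 active = OD600 absorbance below the run mean of sample wells minus 3.6 SD, in any replicate, cut at about 0.56 in these data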;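 also: stock transfer was 300 nL into about 60 µL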
# HNF4A DNA FP: change in binding of human HNF4 alpha to DNA | actives 0.3% (n = 360,000) | AID 1224865 | P41235 | activity change, % at 10 µM | HNF4a-FITC DNA binding, fluorescence polarization, 1 h; in the data active = activity change above about 30%, passing the limit was not always enough;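 also: controls were the assay level and a saturating level of protein; the project sought stronger binding though the title names inhibitors; some compounds called inactive have numbers as strong as hits; positive values seem to mean higher polarization but the record does not say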
# Target sequence (P41235 whole entry, looked up): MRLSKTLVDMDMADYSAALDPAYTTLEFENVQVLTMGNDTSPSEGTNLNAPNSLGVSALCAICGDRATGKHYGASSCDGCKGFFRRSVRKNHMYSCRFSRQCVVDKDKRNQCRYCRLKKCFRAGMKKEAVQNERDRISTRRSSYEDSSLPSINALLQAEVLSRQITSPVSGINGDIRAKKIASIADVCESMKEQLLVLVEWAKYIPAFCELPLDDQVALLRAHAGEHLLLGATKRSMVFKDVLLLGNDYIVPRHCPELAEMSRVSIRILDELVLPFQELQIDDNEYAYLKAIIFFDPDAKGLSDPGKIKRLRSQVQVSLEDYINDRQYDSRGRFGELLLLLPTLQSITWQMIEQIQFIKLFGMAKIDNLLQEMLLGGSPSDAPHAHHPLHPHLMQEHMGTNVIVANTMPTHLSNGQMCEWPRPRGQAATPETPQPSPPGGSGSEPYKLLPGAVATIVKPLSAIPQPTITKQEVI
# ALR inh: blocks human ALR sulfhydryl oxidase activity | purified ALR, DTT oxidation, H2O2 HRP-luminol luminescence | inhibition, % (concentration not given with the values) | actives 3.8% (n = 290,000);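 active = mean and each replicate at 75% or more; inconclusive = only one of the two met; inactive = neither met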;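 also: stock transfer was 7.5 nL into about 7.5 µL; 0% = neutral wells and 100% = wells with inactivated enzyme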
# Target sequence (P55789 whole entry, looked up): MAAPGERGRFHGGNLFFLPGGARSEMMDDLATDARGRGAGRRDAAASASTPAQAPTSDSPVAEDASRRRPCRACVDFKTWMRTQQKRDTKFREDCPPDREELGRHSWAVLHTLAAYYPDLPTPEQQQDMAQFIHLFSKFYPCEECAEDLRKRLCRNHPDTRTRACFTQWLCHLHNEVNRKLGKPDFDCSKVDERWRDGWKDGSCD
# Ecoli rRNA inh OD600: also measured in Ecoli rRNA inh; calls as there; OD600 change, %; measured here: OD600 growth;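 optical density of the mix in the first replicate; 0 = DMSO median and -100 = no signal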
# Ecoli rRNA inh RFP: further read-out of Ecoli rRNA inh, marked with its call; RFP signal change, %; measured here: RFP humanized mutant strains;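 first replicate; 0 = DMSO median and -100 = no signal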
# Numbers without * were called inactive; i = inactive; ? = inconclusive; / = not tested or not shown; & = joins results of further samples. This is a subset (hit frequency here may not be typical).
SMILES,Ecoli rRNA inh,Ecoli rRNA inh OD600,Ecoli rRNA inh RFP,Vif A3G,MLL AF4-AF9 inh,FGF22 binding,E coli growth,HNF4A DNA FP,ALR inh
COc1cccc(CNC(=O)CC(NC(C)=O)c2ccccc2)c1 (stereo not drawn),11.5,13.9,2.6,-3.8%,-1.7,i,0.687,2.3,-7.4
COc1ccc(C(=O)NCCS(=O)(=O)N(C)Cc2ccccc2)cc1,-1.9,-1.7,0.2,13.9%,-0.7,i,0.657,0.7,-2.5
CC(=O)N1CCN(c2ccc(NCc3ccco3)cc2)CC1,8.7,8.0,26.7,/,-12.7,i,0.681,7.6,99.0*
O=C(Nc1ccc2c(c1)OCCO2)c1cc(-c2ccccc2)nc2ccccc12,/,/,/,-3.0%,/,/,0.711,0.8,1.0
Cc1ccc(S(=O)(=O)NCC(=O)NCC(=O)NCCc2ccc(Cl)cc2)cc1C,/,/,/,5.8%,-7.0,i,/,0.9,/
CN(C(=O)c1cccc(NC(=O)Cc2cccc(NC(=O)C3CCCN(C(=O)C4CC4)C3)c2)c1)C1CCC1 (stereo not drawn),0.6,3.9,-6.1,/,-5.4,/,0.685,2.8,/
COc1ccc(NS(=O)(=O)c2ccc(N3CCOCC3)c(NC(=O)c3cccc(F)c3)c2)cc1,/,/,/,?,/,/,0.708,-2.0,2.5
O=C(Cc1ccc(Cl)cc1)OCc1nnc(-c2ccccc2)o1,-3.3,-7.6,5.2,10.9%,-2.3,i,0.736,-3.2,-5.1
CCC(Sc1nc2ccccc2[nH]1)C(=O)Nc1cc(C)on1 (stereo not drawn),/,/,/,19.3%,/,/,0.752,0.9,-6.1
O=C(COC(=O)c1ccccn1)NCc1cccc(Cl)c1,-0.3,-1.1,-1.0,11.7%,0.8,i,0.7,1.7,/
COc1ccc(CN2CCN(C(=O)CCC(=O)Nc3nnc(CC(C)C)s3)CC2)cc1F,-3.4,-12.6,1.7,/,-5.3,i,0.672,0.1,-8.8
CCOC(=O)C1=C(C)OC(=Cc2ccc(OC)cc2)C1=O,11.4,16.9,4.7,8.1%,-2.0,i,/,6.2,/
COc1ccc([N+](=O)[O-])cc1NC(=O)C(C)OC(=O)c1cccnc1Cl (stereo not drawn),21.2,24.6,4.1,4.5%,1.5,i,0.685,-0.2,-0.5
CC(C)(C)c1ccc(C2(C)NC(=O)N(CC(=O)NCc3cccs3)C2=O)cc1 (stereo not drawn),-17.9,-29.5,-2.9,/,-14.2,i,0.731,1.1,-11.1
CCCc1cc(C(=O)Nc2ccc(F)cc2F)no1,-6.2,-0.1,-7.4,-1.1%,-0.3,i,0.736,-4.4,/
COC(=O)CCn1[nH]c(=O)c2ccccc2c1=O,/,/,/,6.3%,/,/,0.585,2.0,/
CCOC(=O)c1c(C)nc2sc3c(=O)n(-c4ccc(OC)cc4)nnc3c2c1-c1ccc(OC)cc1,/,/,/,4.3%,/,/,0.665,0.1,-1.0
CC(C)NC(=O)N1[C@H](CO)[C@H](c2ccc(C#CC3CC3)cc2)[C@@H]1C#N,0.4,4.3,-3.5,/,-1.1,i,/,/,/
COc1ccc(CCNC(=O)Cn2cnc3c2c(=O)n(C)c(=O)n3C)cc1OC,/,/,/,-5.5%,/,/,0.698,2.1,-4.0
O=C1CCc2cc(NS(=O)(=O)c3ccc(F)cc3)cc3c2N1CC3,0.9,3.1,0.3,9.1%,0.3,i,0.591,2.5,6.2
CCOCCCNC(=S)N1CCCN(c2nc3c(C)c(C)ccc3cc2C#N)CC1,2.9,-2.0,4.6,/,-3.8,/,0.69,4.3,/
CCOc1cc(CNS(=O)(=O)c2cn(C)cn2)cc(OCC)c1OCC,-0.8,3.3,-2.3,/,-0.3,i,0.715,3.3,1.4
O=C(CCC(C(=O)c1ccccc1)c1ccccc1)c1ccccc1 (stereo not drawn),-9.0,5.9,-2.2,2.4%,0.7,/,/,0.6,/
COc1ccc2ccccc2c1CN1CCN(C(=O)c2ccco2)CC1,-15.4,-54.0,-1.0,/,4.7,i,0.648,3.1,/
O=C(CSCc1ccc(Cl)c(Cl)c1)Nc1c[nH]c(=O)[nH]c1=O,/,/,/,14.2%,1.7,i,0.716,2.7,25.7
CCN(CC)CCCNC(=O)Cc1c(C(=O)O)n(C)c2ccccc12,/,/,/,14.5%,/,/,0.668,0.4,-6.8
COc1ccc(S(=O)(=O)Nc2ccc3c(c2)C(=O)N([C@@H](C)CO)C[C@@H](C)[C@@H](CN(C)C)OCCCC[C@H](C)O3)cc1,3.1,1.5,-0.2,/,-10.1,i,/,/,/
COC(=O)C1=C(C)N(CC(C)C)C(=S)NC1c1cccc(Br)c1 (stereo not drawn),-37.2,-65.0,-4.7,/,-2.4,/,/,/,/
CCCCn1c(C(C)NC(=O)CC)nc2ccccc21 (stereo not drawn),2.8,-1.4,0.2,74.4%,0.4,i,0.74,-1.7,17.9
O=C1N=C(N2CCCC2)S/C1=C\C=C\c1ccccc1,3.9,-8.6,16.4,-0.1%,1.5,i,0.575,1.7,/
COc1cccc(CSc2nnc(C(F)(F)F)n2Cc2ccc(F)cc2)c1,-28.8,-29.3,-1.3,1.0%,-16.2,i,0.712,1.2,-4.7
Cc1c(C(=O)NN)sc(=S)n1C,-2.1,6.3,-2.7,3.2%,/,i,0.71,0.2,26.0
COc1ccc(NC(=O)c2oc3ccc(S(=O)(=O)N4CCC5(CC4)OCCO5)cc3c2C)cc1,/,/,/,2.1%&-7.6%,/,/,0.671,-1.1,-0.7
COc1ccccc1Cc1c(-c2cccc(Cl)c2)nc2c3ccccc3ccn12,20.1,18.1,34.0,/,-0.6,i,/,/,/
COc1cccc(C(O)c2nc(-c3ccc(F)c(Cl)c3)cs2)c1 (stereo not drawn),-58.0,-73.8,-18.4,/,-6.4,i,/,1.8,/
COC(=O)C(Sc1ccc(Cl)cc1)C1SC(=S)N(Cc2ccccc2)C1=O (stereo not drawn),/,/,/,2.9%,5.2,i,/,12.9,/
CCCc1ccc(OCc2ccc(C(=O)N3CCN(c4ccccn4)CC3)o2)c(OC)c1,-19.6,-32.9,5.7,2.8%,/,/,0.657,0.5,-77.7
CN1CCN(C(=S)c2cn(Cc3ccc(Br)cc3)c3ccccc23)CC1,-21.6,-30.1,8.9,0.4%,27.0*,i,0.675,-0.6,0.7
CCCNC(=O)Nc1ccc2c(c1)OC[C@H](C)N(C(=O)C1CCOCC1)C[C@@H](C)[C@H](OC)CN(C)C2=O,1.8,0.3,-1.9,/,2.1,i,/,/,/
Cc1c(C=O)c2ccccn2c1C(=O)c1ccncc1,/,/,/,6.2%,/,/,0.73,-0.5,-4.2

# Compound profiles, from the list above. Order of screens: Ecoli rRNA inh, Ecoli rRNA inh OD600, Ecoli rRNA inh RFP, Vif A3G, MLL AF4-AF9 inh, FGF22 binding, E coli growth, HNF4A DNA FP, ALR inh
# CCOc1cc(CNS(=O)(=O)c2cn(C)cn2)cc(OCC)c1OCC as listed: -0.8, 3.3, -2.3, /, -0.3, i, 0.715, 3.3, 1.4
# CCCNC(=O)Nc1ccc2c(c1)OC[C@H](C)N(C(=O)C1CCOCC1)C[C@@H](C)[C@H](OC)CN(C)C2=O as listed: 1.8, 0.3, -1.9, /, 2.1, i, /, /, /
# COc1ccc(NC(=O)c2oc3ccc(S(=O)(=O)N4CCC5(CC4)OCCO5)cc3c2C)cc1 as listed: /, /, /, 2.1%&-7.6%, /, /, 0.671, -1.1, -0.7

# The list goes on:
SMILES,Ecoli rRNA inh,Ecoli rRNA inh OD600,Ecoli rRNA inh RFP,Vif A3G,MLL AF4-AF9 inh,FGF22 binding,E coli growth,HNF4A DNA FP,ALR inh
C#CCCOC(=O)Nc1ccccc1,8.5,10.7,-1.5,/,-1.1,i,0.673,2.0,8.8
COc1cccc(N2CCN(S(=O)(=O)c3cccc4nsnc34)CC2)c1,5.5,3.7,0.2,7.8%,2.5,i,0.688,-2.8,12.6
Cc1ccc(C(C)NC(=S)NCc2ccc(F)cc2)c(C)c1 (stereo not drawn),-33.9,-38.1,-7.1,/,-2.5,i,0.713,-1.4,-3.3
COC(=O)c1ccc(C(=O)OC)c(-n2c(=O)c3ccccc3c3ccccc3c2=O)c1,9.2,-2.1,0.4,/,-0.8,i,0.717,2.0,2.4
CCOC(=O)c1cc(C(=O)OCC)c2cccc(C)n2c1=O,/,/,/,-3.5%,/,/,0.758,1.0,2.5
O=C1CCSc2ccc(Cl)cc2N1Cc1cccc(Cl)c1,/,/,/,4.0%,/,/,0.816,0.4,-4.9
C[C@@H]1CN([C@@H](C)CO)S(=O)(=O)c2ccc(/C=C/c3ccccc3)cc2O[C@H]1CN(C)C(=O)NC1CCCC1,-7.2,-1.0,-0.3,/,8.1,i,/,/,/
O=C(N/N=C/c1ccc(Br)s1)c1ccccn1,/,/,/,-10.3%,/,/,/,-4.2,-0.3
CN1CCN(CCCNCc2cn(CCC#N)c3ccccc23)CC1,15.7,19.4,2.9,-5.2%,25.0*,i,0.665,6.5,/
CC(=O)Nc1ccc(NC(=O)c2ccc(-c3ccccc3Cl)o2)cc1,-8.2,-3.7,-4.4,-1.5%,0.5,i,0.749,0.9,/
CC(C)(C)c1ccc(S(=O)(=O)NCc2ccc(C(=O)N3CCOCC3)cc2)cc1,/,/,/,4.9%,/,/,0.715,0.8,-1.5
CN(C)S(=O)(=O)c1ccc(N2CCCC2)c(C(=O)NCC2CCCCC2)c1,16.8,0.9,1.0,/,3.4,i,0.701,0.1,-0.5
O=C(CC1SC(=O)N(Cc2cccc3ccccc23)C1=O)Nc1nccs1 (stereo not drawn),/,/,/,-4.9%,/,/,0.709,2.4,-0.4
Cc1nn(Cc2ccc(F)cc2)c(C)c1NC(=O)c1cc2ncc(Br)cn2n1,-9.2,-4.3,-0.7,19.6%,3.6,i,0.684,-8.9,-3.4
CCC(C)N(C(=O)COC(=O)c1ccc(=O)n(Cc2ccccc2)n1)C1CCS(=O)(=O)C1 (stereo not drawn),0.3,-1.1,-4.3,-3.8%,-4.9,i,0.666,1.7,1.8
COc1cccc(-c2ccc3nnc(SCC(=O)N4CCOCC4)n3n2)c1,2.5,1.7,0.0,-0.4%,0.8,i,0.681,3.0,-2.8
Cc1ccc(NC(=O)CCN2C(=O)c3cccc([N+](=O)[O-])c3C2=O)c(Br)c1,17.7,18.7,2.2,/,-17.4,i,0.653,-2.7,-13.1
COc1ccccc1CNC(=O)COC(=O)c1ccc(C(=O)c2ccccc2)cc1,6.4,3.0,-2.5,-10.5%,0.2,i,0.665,1.1,13.9
CCN(CC)S(=O)(=O)c1ccc(N2CC(C(=O)Nc3cccc(C(=O)NC4CC4)c3)CC2=O)cc1 (stereo not drawn),7.5,18.6,-0.5,/,-0.2,i,0.599,3.6,/
COc1cc2cc(C(=O)N(C)C3CCS(=O)(=O)C3)[nH]c2cc1OC (stereo not drawn),1.6,-5.9,-0.9,/,-1.6,i,0.662,1.7,-6.5
CCC1CN(S(=O)(=O)c2cc(-c3cc(C)no3)ccc2OC)c2cc(C)ccc2O1 (stereo not drawn),2.5,5.2,1.2,7.1%,1.3,i,0.681,1.4,-3.5
COc1cc(NC(=O)COc2ccccc2[N+](=O)[O-])ccc1NC(=O)c1cccs1,6.2,2.8,-2.3,15.5%,-42.7,i,0.724,0.0,/
Cc1nnc(SCC(=O)NCCc2ccccc2)s1,1.6,7.1,-0.2,-2.1%,-1.3,i,0.736,-1.8,-12.7
O=C(COC(=O)CN1C(=O)COc2ccccc21)NCc1ccc(F)cc1,2.9,0.7,-1.0,-4.9%,-5.1,i,0.699,6.1,-8.2
